hNpr1 antagonist: human Npr1 receptor antagonism; 76,000 compounds, 1.6% hits; AID 1347048; HEK293 hNpr1 GloSensor cGMP, ANP-stimulated luminescence; Potency, µM (highest dose often 46.3 µM), for inactives: top-dose activity change, negative = inhibition, most hits filed as inhibitors; active = well fitted inhibition curve with a large enough effect; inconclusive = small, poorly fitted or top-dose-only effect; inactive = no such curve, though single readings can be large or run the other way;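 also: nearly all actives have a fitted effect of over 60% in size; nearly all hits also lower the signal before the agonist is added; a reference antagonist and vehicle were the controls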
Target sequence (P16066 whole entry, looked up): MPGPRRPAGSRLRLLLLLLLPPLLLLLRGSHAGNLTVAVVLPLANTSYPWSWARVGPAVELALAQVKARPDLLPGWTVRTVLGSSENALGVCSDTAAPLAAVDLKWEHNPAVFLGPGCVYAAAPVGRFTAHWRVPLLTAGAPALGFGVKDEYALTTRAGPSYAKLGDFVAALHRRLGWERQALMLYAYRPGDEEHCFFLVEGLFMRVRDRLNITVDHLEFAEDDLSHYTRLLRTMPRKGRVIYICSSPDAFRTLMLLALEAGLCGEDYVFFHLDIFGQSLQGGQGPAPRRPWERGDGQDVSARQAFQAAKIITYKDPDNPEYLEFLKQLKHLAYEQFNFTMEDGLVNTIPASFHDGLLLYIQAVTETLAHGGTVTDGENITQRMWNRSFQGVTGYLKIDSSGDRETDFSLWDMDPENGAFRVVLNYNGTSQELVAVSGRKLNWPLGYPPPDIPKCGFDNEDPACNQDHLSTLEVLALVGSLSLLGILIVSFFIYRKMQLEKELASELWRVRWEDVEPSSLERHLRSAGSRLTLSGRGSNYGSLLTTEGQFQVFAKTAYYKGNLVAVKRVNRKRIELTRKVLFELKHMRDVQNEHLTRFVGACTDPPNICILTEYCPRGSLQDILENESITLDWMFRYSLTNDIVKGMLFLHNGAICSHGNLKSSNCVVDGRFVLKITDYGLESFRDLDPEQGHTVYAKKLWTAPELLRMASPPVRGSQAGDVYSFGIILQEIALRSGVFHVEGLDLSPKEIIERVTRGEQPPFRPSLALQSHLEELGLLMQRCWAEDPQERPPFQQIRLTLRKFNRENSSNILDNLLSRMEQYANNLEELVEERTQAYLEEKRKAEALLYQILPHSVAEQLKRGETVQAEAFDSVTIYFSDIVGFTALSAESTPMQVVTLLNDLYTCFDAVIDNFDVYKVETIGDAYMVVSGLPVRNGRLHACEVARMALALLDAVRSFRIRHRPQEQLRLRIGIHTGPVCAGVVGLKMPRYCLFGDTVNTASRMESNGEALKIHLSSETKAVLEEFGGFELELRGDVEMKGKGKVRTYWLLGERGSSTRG
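HEK293 cells stably expressing human Npr1 and cGMP GloSensor pGS-40F, loaded 2 h with 2% GloSensor reagent, given compound 30 min at room temperature. Luminescence read before and 20 min after 0.1 nM hNppA.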
The depositor's hits bear a star; u = inconclusive; & = joins results of further samples; [ ] = remark or other dose. % is scaled to controls: 0 for no effect and ±100 for the full control effect; potency is read from the fitted curve at half-maximal effect. These rows are one share of the data. The share of hits here may be higher or lower than overall.

SMILES | hNpr1 antagonist
O=C(NCc1nc(-c2ncccn2)no1)[C@H]1CNC[C@@H](C(=O)N2CCCC2)C1 | -4%
Cc1noc(C)c1CC(=O)N1CCc2c(c(-c3nncn3C)nn2C)C1 | 7%
CCN(CC)C(=O)C[C@@H]1c2nc(NC(=O)c3cccs3)sc2C[C@@H]2[C@](C)(CO)[C@H](O)CC[C@]21C | -15%
COc1cccc(N2CC(C(=O)N3CCC(C(=O)NCc4cccc(F)c4)C3)NC2=O)c1 (configuration not stated) | 9%
O=C(NC[C@H]1O[C@@H](CO)[C@@H](O)[C@H]1N1CCOCC1)c1ccco1 | 0%[70.6 µM]
CNC(=O)[C@@H]1C[C@H](n2cc(CN(C)C(=O)NCC3CCCCC3)nn2)CN1 | 3%
CCC(C)NC(=O)N1CC(Oc2ccccc2-c2nc(-c3ccccc3)no2)C1 (configuration not stated) | -4%
CCc1ccc(C(=O)N2[C@@H]3CC[C@H]2CC(NC(=O)c2ccncc2)C3)cc1 (some centres not stated) | 3%
O=C(Cc1ccc(Cl)cc1)N1CCC(c2n[nH]c(=O)n2Cc2ccc(F)cc2)CC1 | -12%
COCCNC(=O)[C@H]1C[C@H](Oc2ccccc2)CN1C(=O)CC1CCCC1 | 1%
CCOc1ccc(NC(=O)Cn2ccn3nc4c(c3c2=O)CCCCC4)cc1 | -3%
CCCNC(=O)c1cc(-c2ccc(F)cc2)cn1C | u
CC(C)c1noc(C2CCCN(C(=O)CCCc3ccccc3)CCC(=O)NCC2)n1 (configuration not stated) | -2%
CC(C)c1nnc(C2CN(C(=O)c3cnccn3)CC23CCOCC3)o1 (configuration not stated) | 0%
CC(C)[C@]1(O)CN(C(=O)c2ccc3c(c2)CCCO3)C[C@H]1C | 16%
CS(=O)(=O)N1CCCC(c2nc(-c3cccnc3)no2)CCNC(=O)CC1 (configuration not stated) | 0%
CCS(=O)(=O)Nc1ccc(C(=O)NCc2cc3n(n2)CCNC3)cc1 | 6%
CCCNC(=O)NC[C@@H]1C=C(C)[C@H](Cc2nc3ncccc3[nH]2)C[C@H]1C(C)C | 2%[70.6 µM]
CC(C)c1nc(CN(C)C(=O)c2cc(COc3ccccc3)[nH]n2)no1 | 6%
Cc1ccc2c(C(=O)NCc3ccc(Cl)cc3Cl)cnn2c1 | 0%[70.6 µM]
O=C(O)CCC(=O)N1Cc2[nH]cnc2C[C@H]1c1nc(-c2ccc(OC(F)(F)F)cc2)no1 | 5%
COC1C(=O)N(C2CCN(C(=O)c3ccccn3)CC2)C12CCOCC2 (configuration not stated) | 0%
COc1ccc(C2Cn3cnc(C(=O)N4CCC(C(=O)Nc5ccc(C)cc5)CC4)c3CO2)cc1 (configuration not stated) | -13%
Cc1cc2nc(CO[C@H]3CN(Cc4ccc(S(C)(=O)=O)cc4)C[C@H]3F)[nH]c2cc1C | -19%[70.6 µM]
CCOC(=O)C1=C(C)N=C2SC=C(CC(=O)N3CCC(C)CC3)N2C1c1ccc(C)cc1C (configuration not stated) | u
CCN(CC)C(=O)CC[C@H]1CNC(=O)[C@@H]2[C@@H](CCN2Cc2ccc(F)cc2)N1C | -3%[70.6 µM]
COc1ccc(-c2ccnc3nc(CCc4ccc(OC)c(OC)c4)nn23)c(F)c1 | -19%
O=C(CCc1nnn2c1CN(Cc1ccc(O)c(F)c1)CC2)NCc1ccccc1 | -2%
CN(C)C[C@@H]1CN(c2ncccn2)C[C@H]1NC(=O)c1ccc(C#N)cc1 | 2%
COc1ccc(-c2[nH]nc3ncc(-c4cccc(F)c4)nc23)c(C)c1 | 1%[70.6 µM]
CCCOCCNC(=O)c1c(C)noc1-c1cc(OC)cc(OC)c1 | 5%
CN1CCCN(C(=O)CCC[C@H]2NC[C@@H]3C[C@H]2CN(Cc2ccccc2)C3)CC1 | -1%
CCCc1noc(-c2cn(C3CCN(C(=O)c4ccc(OC)cc4C)CC3)nn2)n1 | 0%
O=C(CCC[C@@H]1[C@H]2CCCN3CCC[C@@H](CN1C(=O)c1ccccc1)[C@@H]23)Nc1ccccc1 | 2%
COc1ccc(C(=O)NC2CCN(c3cn[nH]c(=O)c3)CC2)cc1 | 4%
O=C(NC1CCCCC1)[C@@H]1Cc2nc[nH]c2CN1C(=O)C1CC1 | 2%[70.6 µM]

Part of the list above, reformatted.
hNpr1 antagonist,SMILES
-19%,COc1ccc(-c2ccnc3nc(CCc4ccc(OC)c(OC)c4)nn23)c(F)c1
-2%,O=C(CCc1nnn2c1CN(Cc1ccc(O)c(F)c1)CC2)NCc1ccccc1
2%,CN(C)C[C@@H]1CN(c2ncccn2)C[C@H]1NC(=O)c1ccc(C#N)cc1
1%[70.6 µM],COc1ccc(-c2[nH]nc3ncc(-c4cccc(F)c4)nc23)c(C)c1
5%,CCCOCCNC(=O)c1c(C)noc1-c1cc(OC)cc(OC)c1

Reformatted as labelled records: part of the list above
Molecule: O=C(Cc1ccc(Cl)cc1)N1CCC(c2n[nH]c(=O)n2Cc2ccc(F)cc2)CC1
  hNpr1 antagonist: -12%

Molecule: COCCNC(=O)[C@H]1C[C@H](Oc2ccccc2)CN1C(=O)CC1CCCC1
  hNpr1 antagonist: 1%

Molecule: CCOc1ccc(NC(=O)Cn2ccn3nc4c(c3c2=O)CCCCC4)cc1
  hNpr1 antagonist: -3%

Remaining list, next part
SMILES | hNpr1 antagonist
COCCN1CC(CO)C2(CCN(C(=O)c3nccc4ccccc34)CC2)C1 (configuration not stated) | 7%
Cc1ccc(C)c(NC(=O)NCC2CCOCC2)c1 | 1%
COc1ccccc1Cn1c(-c2cccc(Cl)c2)nc(C)c(CCO)c1=O | 0%
COc1cccc(NC(=O)CN2C(=O)NC(c3ccc(C)cc3)C3=C2COC3=O)c1 (configuration not stated) | -11%
CC1=C[C@@H](CNCc2ccncc2)[C@H](C(C)C)C[C@H]1Cc1nnc(-c2ccccc2F)o1 | u
COc1ccc(S(=O)(=O)N2CCC(Oc3ncccc3C(=O)N3CCOCC3)C2)cc1 (configuration not stated) | -11%
O=c1[nH]c2cccnc2n1C1CCCC1 | 24%[70.6 µM]
O=C(O)c1cc(-c2ccc(CN3CCCC(CO)C3)o2)ccc1Cl (configuration not stated) | -1%
O=C(c1cccc(Cl)c1)N1CCn2c(nn(-c3ccc(C(F)(F)F)cc3)c2=O)C1 | -24%
CN(C)[S+](=O)([O-])c1ccc2c(c1)OCCN(Cc1ccccn1)C2 | -1%[70.6 µM]
O=C(c1ccc(N2CC3CC(C2)[C@H]2CCCC(=O)N2C3)nc1)N1CCC(N2CCCCC2)CC1 (some centres not stated) | 3%
CCNCc1ccc(-c2ccc(Cl)cc2)o1 | 3%
Cc1ccc(Cn2c(C3CCN(C(=O)Cc4cccc(F)c4)CC3)n[nH]c2=O)cc1 | 0%
COC(=O)CCNC(=O)C1c2ccccc2C(=O)N(c2ccccc2)C12CCCCC2 (configuration not stated) | 3%
Cn1c(C(=O)N2CCNc3cnc(Nc4cccc(C(F)(F)F)c4)nc3C2)cc2ccccc21 | -30%
CC(C)(Oc1nn(CC2CCOCC2)c2ccccc12)C(=O)NC1CCC(O)CC1 (configuration not stated) | 1%[70.6 µM]
Cc1ccsc1C(=O)N1CCC(n2cnnc2-c2ccccc2)C1 (configuration not stated) | -3%
NC(=O)[C@H]1C[C@@H](O)[C@H](O)[C@H]2[C@@H]1SC(=Nc1ccc(Cl)cc1)N2CC1CCCCC1 | -10%
CC(C)NC(=O)N[C@H]1C[C@@H](Cc2cc(-c3ccccc3)on2)C1(C)C | u
COc1ccc(OC)c(CN2CCNc3cc(Nc4ccccc4)ncc3C2)c1 | -27%[70.6 µM]
CCN1c2cc(C(=O)Nc3ccc(N4CCOCC4)cc3)ccc2C(=O)N2CCCCC21 (configuration not stated) | 0%
COC(=O)c1ccc2nc(C[C@@H]3C[C@@H](C(C)C)[C@H](CNCc4ccc(OC)cc4O)C=C3C)[nH]c2c1 | -20%
COc1ccc(CN2CC3(CCN(C(=O)Cc4cccc(OC)c4)CC3)C2=O)cc1 | -15%
Cn1ccc2c(C(=O)N[C@@H]3CCOC[C@H]3Oc3ccccn3)cccc21 | 1%

Individual results from the list.
COc1cccc(N2CC(C(=O)N3CCC(C(=O)NCc4cccc(F)c4)C3)NC2=O)c1 (configuration not stated) – hNpr1 antagonist = 9%
CN1CCCN(C(=O)CCC[C@H]2NC[C@@H]3C[C@H]2CN(Cc2ccccc2)C3)CC1 – hNpr1 antagonist = -1%
COCCN1CC(CO)C2(CCN(C(=O)c3nccc4ccccc34)CC2)C1 (configuration not stated) – hNpr1 antagonist = 7%

3 compounds from above, sorted by the number in hNpr1 antagonist, descending:
SMILES | hNpr1 antagonist
COCCN1CC(CO)C2(CCN(C(=O)c3nccc4ccccc34)CC2)C1 (configuration not stated) | 7%
Cc1ccsc1C(=O)N1CCC(n2cnnc2-c2ccccc2)C1 (configuration not stated) | -3%
O=C(Cc1ccc(Cl)cc1)N1CCC(c2n[nH]c(=O)n2Cc2ccc(F)cc2)CC1 | -12%

Continued.
SMILES | hNpr1 antagonist
CC(=O)N1CCC(C(=O)NCc2nnc3ccc(-c4ccc(C)cc4)nn23)CC1 | -6%
O=C(Nc1cc(F)cc(F)c1)N1CCC(Oc2ncccc2C(=O)N2CCCCC2)C1 (configuration not stated) | 2%
CC(=O)N1CCCN(C(=O)c2cnc3c(c2)N(C(=O)Cc2ccc(C(C)C)cc2)CCC3)CC1 | 8%
COc1ccc(C2Cn3nnc(C(=O)N4CCC(C(=O)NCC5CC5)CC4)c3CO2)cc1 (configuration not stated) | 0%
CC1CCC2(CC1)NC(=O)N(CC(=O)Nc1cccc(C(F)(F)F)c1)C2=O (configuration not stated) | -10%
COc1ccc(NC(=O)CN2C(=O)COc3ccc(C(=O)COc4ccccc4F)cc32)cc1 | -5%
CC1CCN(Cc2ccc(C(=O)N3CCCC4(CCNC4)C3)o2)CC1 (configuration not stated) | 4%
CCn1cc(S(=O)(=O)N2CCC3(CCC3OC)CC2)cn1 (configuration not stated) | -1%
CCc1noc(-c2cn(C3CCN(C(=O)c4ccc5[nH]ccc5c4)CC3)nn2)n1 | -3%
CC(C)CN1C(=O)CCc2cc(NC(=O)C3CCC3)ccc21 | -12%
CC1(C)CN(C(=O)C2CCN(C(=O)C3CCCC3)CC2)CC1(C)O (configuration not stated) | 2%
COCCNC(=O)[C@H]1C[C@H](Oc2ccccc2)CN1C(=O)c1ccc(F)cc1 | 10%
O=C(NC1CCc2ccccc21)c1ccc(CN2C(=O)NC3(CCOCC3)C2=O)cc1 (configuration not stated) | -13%
Cn1cc(-c2cc(-c3ccncc3)c3cncn3c2)cn1 | -4%[70.6 µM]
Cc1ccc(CNC(=O)C2Cn3cccc3C(=O)N2C)o1 (configuration not stated) | -1%
COc1cccc(CNC(=O)c2cc3c(N4CCCC4)nc(C)cn3n2)c1 | 16%
O=C(c1ccco1)N1CCC[C@H]1c1nc(-c2ccc(F)cc2)no1 | -2%
COc1cccc(CCC(=O)NCC23CCCC=C2N(C)C(=O)CC3)c1 (configuration not stated) | 4%
N#Cc1cccc(-c2cn3c(n2)N(C(=O)CC2CCNCC2)CCC3)c1 | -9%
COCC(=O)NC1CCC12CCN(Cc1cccc(F)c1)CC2 (configuration not stated) | 3%
NC1CCCCN(C(=O)c2ccc(Cn3cccn3)o2)C1 (configuration not stated) | 2%
COCC1CN(C(C)=O)CC12CCN(Cc1ccc(Cl)cc1F)CC2 (configuration not stated) | -12%
c1ccc(-c2ccnc3nc(C4CCC4)nn23)cc1 | 1%
COc1ccc(N2CC(C(=O)N3CCC(C(=O)NCc4ccc(C(F)(F)F)cc4)C3)NC2=O)cc1 (configuration not stated) | 0%&-2%
Cc1nnc2n1C(C)CN(C(=O)CCCn1cnc3ccccc3c1=O)C2 (configuration not stated) | 0%
Cc1ccc(C(=O)N2CC[C@@H]3CN(S(C)(=O)=O)[C@@H]3C2)cc1C | -1%
O=C(c1cc(F)ccc1F)N1CCN(c2cc(-c3ccc(Cl)cc3)[nH]n2)CC1 | u
O=C(Cc1ccccc1)N1CCCC(c2noc(COc3ccccc3F)n2)C1 (configuration not stated) | -12%
COc1ccc(CC(=O)N2CC[C@@H](CC(=O)O)[C@@H](CCN3CCN(c4cccc(C(F)(F)F)c4)CC3)C2)cc1 | 0%
CCOc1cccc(CN2C[C@@H](Oc3ccccc3)C[C@@H]2C(=O)NC)c1 | 0%
CC(C)CC(=O)N1CCC2(CC1)NCCc1c2[nH]c2ccccc12 | 3%
O=c1[nH]c(C2CCCN(Cc3ccccc3C(F)(F)F)C2)nn1-c1ccc(Cl)cc1 (configuration not stated) | 0%
Cc1ccc(-n2c(C3CCN(C(=O)c4ccoc4)CC3)n[nH]c2=O)cc1 | 13%
CC1Oc2ccc(NC(=O)Cc3ccc(F)cc3)cc2CN(CCc2ccc(F)cc2)C1=O (configuration not stated) | -9%
O=C(C[C@@H]1C[C@H]2O[C@H](CNC3CCC(F)(F)CC3)[C@@H](O)[C@H]2O1)N1CCC(F)(F)C1 | 5%[70.6 µM]
CCN1C(=O)C2(CCN(S(=O)(=O)Cc3ccccc3Cl)CC2)c2ccccc21 | -8%
Cc1ccccc1-c1ccnc(-c2nnc(C)n2Cc2ccncc2)c1 | 0%[70.6 µM]
O=C(c1ccc(Cl)cc1)N1CCC(n2cc(-c3nc(-c4ccccc4)no3)nn2)C1 (configuration not stated) | u
COc1cccc(S(=O)(=O)N2CCCC(CN3CCOCC3)CC2)c1 (configuration not stated) | -15%
O=C(NCC1Cn2cccc2C(=O)N1Cc1ccccc1)c1ccco1 (configuration not stated) | 2%
CC(C)c1noc(C2CCCN(C(=O)CC3CCCCC3)CCC(=O)NCC2)n1 (configuration not stated) | 2%
COc1cc(SC)ccc1C(=O)N[C@H]1CCN2C(=O)N(c3ccc(F)c(Cl)c3)C(=O)[C@@H]2C1 | -22%
Cc1nc(-c2ccccc2)n(Cc2ccc(F)cc2Cl)c(=O)c1CCO | -21%

Assay outcomes as filed in PubChem.
